# Assay outcomes as filed in PubChem BioAssay.
# Menin MLL FP FL: qHTS Assay for Inhibitors Targeting the Menin-MLL Interaction in MLL Related Leukemias: Competition With Fluorescein Labeled MLL-derived Peptide | Fluorescence polarization, fluorescein-MLL peptide displacement from menin | FP activity change, % at 61.4 µM | 290,000 tested, under 10 active; inconclusive = falling polarisation curve, or a change in total fluorescence; inactive = total fluorescence flat and polarisation flat or rising; no compound was filed as active; the % refers to the polarisation; negative = inhibition;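 also: % of control where 0% means no effect; inhibitors lower the polarisation; unlabelled MLL peptide was the positive control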
# TRPV1 potentiator: HTS Assay for Compounds that Act as Potentiators of the Vanilloid Receptor 1. Transient receptor potential cation channel subfamily V member 1 (Homo sapiens), Q8NER1. TRPV1-expressing cells, Fluo-8 calcium influx, capsaicin EC20 potentiation; host cell line not named in the record; control for the full effect not named in the record. potentiation, % at 8.33 µM. 320,000 compounds, 0.02% hits. AID 540277, 2011; active means potentiation above 80%; inconclusive means 30% to 80%; inactive means below 30%; also: 0% is about no effect
#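 TRPV1-expressing cells were cultured overnight at 35.5C and loaded with Fluo-8 calcium dye for 40 to 90 min at room temperature. After a 10 s baseline, compound was added and calcium influx was read kinetically for 3 min (ex 480/em 520 nm).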
# ClpP mod: qHTS Assay for Activators of ClpP | Potency, µM (titrated, usually from 57.5 µM), for inactives: top-dose activity change, negative = active | 340,000 compounds, 1.9% hits | ATP-dependent Clp protease proteolytic subunit (Bacillus subtilis (strain 168)), P80244 | purified B. subtilis ClpP, FRET peptide cleavage, 20 min; active = well fitted falling curve with a large enough effect; inconclusive = small, poorly fitted or top-dose-only effect; inactive = no such curve, though single readings can be large or run the other way; also: potency is read from the fitted curve at half-maximal effect; the source files actives as falling curves though it sought activators and does not explain the sign; nearly all actives have a fitted effect of over 65% in size; many hits overshoot -100%
# Target sequence (P80244 whole entry, looked up): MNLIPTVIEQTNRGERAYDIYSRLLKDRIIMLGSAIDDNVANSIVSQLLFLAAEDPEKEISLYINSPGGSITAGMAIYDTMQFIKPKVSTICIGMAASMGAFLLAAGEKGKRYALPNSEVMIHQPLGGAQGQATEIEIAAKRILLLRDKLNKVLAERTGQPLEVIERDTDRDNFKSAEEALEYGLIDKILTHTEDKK
#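 FRET quenching reversal measured ClpP activation: 10 microg/mL B. subtilis ClpP at pH 8 with the FRET-FV decapeptide, read at 430 nm after 320 nm excitation. The 20-min minus 0-min signal was scaled between DMSO/no-enzyme wells and ADEP (5.8 microM final).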
# Sfp PPTase inh: qHTS Assay for Inhibitors of Bacillus subtilis Sfp phosphopantetheinyl transferase (PPTase); Potency, µM, for inactives: max response, negative = inhibition, actives largely listed as inhibitors; AID 1490, 2009; Biochemical Sfp PPTase activity, qHTS; 4'-phosphopantetheinyl transferase ffp (Bacillus subtilis), Q9F4F7; 310,000 compounds, 3.5% hits; active = well fitted inhibition curve with a large enough effect; inconclusive = small, poorly fitted or top-dose-only effect, or another doubt; inactive = no such curve, though single readings can be large or run the other way;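 also: the enzyme is Sfp with the accession as filed and its product quenches rhodamine fluorescence; potency is read from the fitted curve at half-maximal effect; 0% = enzyme reaction without inhibitor and -100% = no enzyme wells; top concentration of the series not given in the record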
#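 With Hepes-Na pH 7.6 buffer containing 10 mM MgCl2, Sfp (15 nM) modified BHQ-2-YbbR (12.5 uM) using rhodamine-CoA (5 uM). Two reads 30 minutes apart at 525/598 nm yielded each well's rate.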
# D2 potentiator: Beta-Arrestin HTS for Positive Allosteric Modulators of the Human D2 Dopamine Receptor: Potentiators | 360,000 compounds, 0.23% hits | DiscoveRx D2 beta-arrestin cells, luminescence, 90 min; 100% = 57 uM dopamine signal | potentiation, % (test concentration not listed) | D(2) dopamine receptor (Homo sapiens), P14416 | AID 624464, 2012; active = potentiation of 50% or more; inconclusive = 30% to 50%; inactive = 30% or less;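 also: compound concentration not given in the record; tested on top of an EC20 dose of dopamine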
# Target sequence (P14416 whole entry, looked up): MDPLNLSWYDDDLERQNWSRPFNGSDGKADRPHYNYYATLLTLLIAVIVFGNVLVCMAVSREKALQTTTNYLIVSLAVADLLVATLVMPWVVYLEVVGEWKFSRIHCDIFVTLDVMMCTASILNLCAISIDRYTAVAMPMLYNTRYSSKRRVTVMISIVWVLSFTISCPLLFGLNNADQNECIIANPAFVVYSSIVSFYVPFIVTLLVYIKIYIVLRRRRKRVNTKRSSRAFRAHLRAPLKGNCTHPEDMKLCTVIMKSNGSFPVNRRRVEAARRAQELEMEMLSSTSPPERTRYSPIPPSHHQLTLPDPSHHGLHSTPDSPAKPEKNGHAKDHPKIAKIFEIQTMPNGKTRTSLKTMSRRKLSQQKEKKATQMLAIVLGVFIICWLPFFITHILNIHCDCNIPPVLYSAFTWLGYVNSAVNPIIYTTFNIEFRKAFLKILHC
#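 PathHunter D2 cells, attached overnight at 37 deg C, received compound in DMSO plus dopamine at EC20 (50 nM final) for 90 min at 37 deg C. Beta-arrestin recruitment was read as luminescence after 1 h with detection reagent at ambient temperature.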
# gsp agonist: qHTS for Agonist of gsp, the Etiologic Mutation Responsible for Fibrous Dysplasia/McCune-Albright Syndrome: qHTS; gsp mutant cells, cAMP HTRF, 30 min; control for the full effect not named in the record; Potency, µM (series often up to 76.9 µM), inactives show at the top dose activation (cAMP increase), most hits filed as activators; 340,000 compounds, 0.13% hits; AID 624287, 2012; active = well fitted activation curve with a large enough effect; inconclusive = small, poorly fitted or top-dose-only effect, or another doubt; inactive = no such curve, though single readings can be large or run the other way; cell line not stated here;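 also: phosphodiesterase inhibitor Ro 20-1724 added with compounds to block cAMP breakdown; potency is read from the fitted curve at half-maximal effect; nearly all actives have a fitted effect of over 60% in size; about a fifth of the inactives were tested at one dose only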
#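 Cells in DMEM/10% FBS with G418 were pretreated with compounds in DMSO plus […] (300 uM stock) for 30 min at 37C. cAMP was measured by HTRF (cAMP-d2 plus anti-cAMP antibody-K) after 30 min at room temperature.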
# gsp antagonist: qHTS for Antagonists of gsp, the Etiologic Mutation Responsible for Fibrous Dysplasia/McCune-Albright Syndrome: qHTS | gsp-mutant cells, cAMP HTRF, 30 min; control for the full effect not named in the record | Potency, µM (top dose mostly 76.9 µM), inactives show at the highest dose activity change, negative = inhibition, usual class: inhibitors | 340,000 compounds, 0.4% hits | AID 624288, 2012; active = falling curve of any shape with a large fitted effect; inconclusive = falling curve, mostly with a smaller effect; inactive = flat or rising curve; cell line not stated here;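 also: intracellular cAMP measured with PDE inhibitor Ro 20-1724 present during compound exposure; potency is read from the fitted curve at half-maximal effect; % is scaled to controls: 0 for no effect and ±100 for the full control effect; nearly all actives have a fitted effect of over 65% in size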
#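 Cells, 2000/well, grown 16–24 h in DMEM 10% FBS with 0.5 mg/ml G418, then compounds plus […] (300 uM addition stock), 30 min at 37C. cAMP read by HTRF (cAMP-d2 and anti-cAMP antibody-K in lysis buffer) after 30 min RT.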
# The depositor's hits bear a star; u = inconclusive; x = not tested or not shown; & = joins results of further samples; [ ] = another dose, or the depositor's remark. No enrichment for hits (roughly 5.1% active in at least one column).
SMILES,Menin MLL FP FL,TRPV1 potentiator,ClpP mod,Sfp PPTase inh,D2 potentiator,gsp agonist,gsp antagonist
Cc1c(C)n(C(=O)CN2CCN(c3ccccc3)CC2)c2ccccc12,3.4,12.7,-0.9%,u,-8.6,-38.4%[inhibitor],-1.5%
c1cc2c(cc1-n1cnnn1)OCO2,-0.4,2.1,x,15.4%,-1.0,28.5%,0.0%
CCc1nnc(NC(=O)C(=O)NCCOC(=O)c2ccccc2)s1,2.9,0.7,0.6%,-15.1%,1.9,-17.9%,-14.3%
COc1ccc(NC(=O)N2C3CCCC2CC(NC(=O)C2CC2)C3)cc1 (stereo not given),-0.9,0.6,x,5.1%,2.7,-7.2%[15.4 µM],20.2%
CCC1(CC)Cc2ccccc2C(=O)N1,0.4,0.2,x,20.2%,0.5,-2.8%[15.4 µM],8.2%
O=C(CSCc1c(Cl)cccc1Cl)Nc1ccc2c(c1)OCCO2,-1.0,-11.0,15.8µM*,-5.9%,-9.8,u,-7.1%
CCOc1ccc(N2CC(C(=O)Nc3ccc(S(=O)(=O)NCC4CCCO4)cc3)CC2=O)cc1 (stereo not given),2.8,-1.2,x,10.6%,-11.9,3.3%[15.4 µM],17.3%
COc1cc(OC)cc(C(=O)NCC(=O)OCC(=O)c2cc(C)n(Cc3ccco3)c2C)c1,-1.0,-0.8,10µM*,9.7%,-21.0,u,-16.2%
CCOCCCNC(=O)c1ccc2c(=O)n(CCCOCC)c(=S)[nH]c2c1,0.1,-8.1,x,10.5%,-0.8,3.5%[15.4 µM],-4.9%
O=C(Nc1cccnc1)c1scc2c1OCCO2,5.3,4.5,-1.1%,21.3%,2.4,9.9%,6.1%
C[C@@H]1COC(=O)[C@H](CC(=O)OC(C)(C)C)C/C=C\C[C@@H](CC(=O)NCCO)C(=O)N1,x,x,-4.4%,x,-7.3,4.2%,-7.3%
COCCCNC(=O)c1ccc(NC(C)=O)cc1,0.3,11.6,-2.8%,17.7%,-9.6,3.9%,3.7%
COc1ccc(C)c2sc(NC(=O)c3cccc(N4C(=O)CCC4=O)c3)nc12,x,-1.3,-5.9%,8.2%,-25.0,8.8%,4.1%
CCCN1CNC(=S)N(c2ccc(C)cc2C)C1,-1.6,3.2,x,5.5%,-1.5,-1.7%[15.4 µM],-8.5%
Cc1cc(NC(=O)CSC2=NCCS2)no1,7.3,-43.1,-1.1%,4.6%,-1.3,4.1%,5.7%
CCCCCCCCCCCCN1[C@@H](CC(=O)O)c2cc(C(F)(F)F)ccc2S1(=O)=O,x,x,4.5%&0.6%,x,-22.4,x,-28.2%
CCCN(CC(=O)Nc1ccc(F)c(F)c1F)C(=O)Cn1c(=O)cnc2ccccc21,x,-1.4,u,x,-10.4,-46.7%,-6.3%
CC(C)[C@H](NC(=O)[C@@H]1Cc2ccccc2CN1C(=O)OC(C)(C)C)C(=O)NC1CCCC1,x,-5.9,-0.4%,10.5%,-4.3,7.6%,u
Clc1ccc(Cn2ncc3c(NCc4ccccc4)ncnc32)c(Cl)c1,4.9,15.0,x,-2.0%,x,x,x
Cc1cc(C(=O)NN)c2cc(Br)ccc2n1,-3.6,-2.3,0.5%,15.4%,5.2,-9.9%,18.1%
COCCOC(=O)c1c(NC(=O)CNc2ccc(C)c(F)c2)sc(C(N)=O)c1C,3.7,x,x,11.9%,1.2,0.9%[15.4 µM],-9.4%
Cc1ccc(C(=O)NCC(=O)O)s1,1.9,6.6,x,12.1%,-1.3,u,9.6%
NC(=O)C1CCN(C(=O)C2CCC(=O)N(Cc3ccc(Cl)cc3)C2)CC1 (stereo not given),x,x,-2.1%,x,-20.2,-28.1%,0.9%
CCC(=O)Nc1cccc(NC(=S)NC(=O)c2ccc(Cl)cc2)c1,6.7,u,-1.9%,-1.4%,-16.9,-6.3%,-19.9%
COc1ccc(NC(=O)c2cnc3sccn3c2=O)cc1,4.0,7.9,1.6%,15.2%,0.4,u,8.5%

# One compound at a time, as listed above. Values in the order: Menin MLL FP FL	TRPV1 potentiator	ClpP mod	Sfp PPTase inh	D2 potentiator	gsp agonist	gsp antagonist
# `CCCN(CC(=O)Nc1ccc(F)c(F)c1F)C(=O)Cn1c(=O)cnc2ccccc21` in the list: x	-1.4	u	x	-10.4	-46.7%	-6.3%
# `Cc1c(C)n(C(=O)CN2CCN(c3ccccc3)CC2)c2ccccc12` in the list: 3.4	12.7	-0.9%	u	-8.6	-38.4%[inhibitor]	-1.5%
# `CCOCCCNC(=O)c1ccc2c(=O)n(CCCOCC)c(=S)[nH]c2c1` in the list: 0.1	-8.1	x	10.5%	-0.8	3.5%[15.4 µM]	-4.9%
# `CCC1(CC)Cc2ccccc2C(=O)N1` in the list: 0.4	0.2	x	20.2%	0.5	-2.8%[15.4 µM]	8.2%

# Remaining list, next part
SMILES,Menin MLL FP FL,TRPV1 potentiator,ClpP mod,Sfp PPTase inh,D2 potentiator,gsp agonist,gsp antagonist
Cc1cccc(C(=O)NC(=S)Nc2ccc(N3CCOCC3)cc2)c1,5.8,3.4,1.3%,-6.7%,-19.6,-7.4%,1.9%
O=C(Nc1cc(S(=O)(=O)N2CCOCC2)ccc1N1CCOCC1)c1ccc([N+](=O)[O-])s1,x,x,0.5%,x,2.3,u,6.7%
COc1ccc(-c2noc(CCC(=O)N3CCC(c4cc(C)ccc4C)CC3)n2)cc1,x,x,-0.7%,x,-0.2,x,-18.3%
Cc1ccc(C(=O)OCC(=O)Nc2ccc(F)c(Cl)c2)o1,x,-3.6,0.2%,x,-4.8,12.5%,2.9%
C(=C\c1ccccc1)/C=N/Nc1nc2ccccc2[nH]1,6.2,26.2,-3.9%,14.1µM*,-2.7,-6.5%,-3.4%
CC(=O)N1N=C(N)SC1c1cccc([N+](=O)[O-])c1 (stereo not given),1.3,-0.8,0.2%,8.5%,-2.5,2.4%[15.4 µM],20.3%
COC1Cc2ccccc2N(C(N)=O)c2ccccc21 (stereo not given),x,x,0.0%,x,1.0,-7.1%[15.4 µM],-21.3%
COc1ccc(CN(C)Cc2c(O)ccc3cc(Br)ccc23)cc1OC,0.3,-11.5,x,-4.9%,-6.6,9.4%,-18.2%
Cc1ccc(CSCC(=O)NCCCN2CCOCC2)cc1,-2.7,-4.4,1.3%,21.2%,4.1,6.9%,1.1%
CCOC(=O)c1sc(NC(=O)c2cccs2)nc1C,3.4,0.3,-1.8%,12.9%,-4.5,-13.6%,2.3%
CC(=O)N/C(=C\c1ccc(F)cc1)C(=O)NC(C(=O)O)C(C)C (stereo not given),-0.3,-1.0,x,12.0%,-46.2,-1.9%[15.4 µM],x
CC(c1cccs1)N(Cc1ccco1)C(=O)Nc1ccc(Cl)c(Cl)c1 (stereo not given),4.3,0.2,-0.7%,8.7%,-14.2,-33.0%[inhibitor],-21.7%
CCNC(=O)n1cc(-n2cncn2)c(-c2ccccc2)n1,-5.6,1.0,x,0.8%,-4.8,u,8.1%
CN(C)CCCOC(=O)c1sc2ccccc2c1Cl,1.7,8.0,x,0.3%,-14.9,u,-4.8%
COc1ccccc1CNC(=O)Cn1cnnn1,-7.6,u,-0.5%,5.7%,0.7,-19.9%,9.7%
CCCc1ccc2oc(C(=O)N3CCN(C4CCS(=O)(=O)C4)CC3)c(C)c2c1 (stereo not given),x,2.7,x,11.1%,-10.0,0.7%,8.2%
Clc1ccc(Cn2ncc3c(NCc4ccco4)ncnc32)c(Cl)c1,3.0,1.9,1.4%,-5.2%,19.9,-12.2%,-5.5%
COc1ccccc1OCC(=O)Nc1ncc(C)s1,x,1.7,-0.7%,x,-2.2,u,3.5%
Cc1ccc(NC(=O)c2ccccc2Cl)c(Cl)c1,-1.0,-0.9,0.0%,-0.3%,-11.3,0.0%,9.8%
CCCC(=O)NNC(=O)CC(=O)Nc1ccccc1C(=O)O,2.1,3.3,-3.2%,21.7%,-12.7,u,8.7%
C/C(=N/NC(=O)c1ccoc1C)c1ccc(NC(=O)C2CCCC2)cc1,1.5,-19.5,-3.9%,7.8%,-2.8,-19.0%,7.9%
O=C(OCc1cccnc1)C1=Cc2ccccc2OC1,-5.1,-10.7,x,23.8%,-7.9,1.2%[15.4 µM],-14.1%
O=C(O)CN=C(NS(=O)(=O)c1ccc(Cl)cc1)c1ccccc1,-0.7,0.0,-1.4%,14.5%,6.0,14.1%,-0.9%
COc1cc(/C=C/C(=O)N2CCN(C(=O)/C=C/c3cc(OC)c(OC)c(OC)c3)CC2)cc(OC)c1OC,6.2,-0.6,x,18.5%,1.8,-28.5%,11.2%
O=C(O)c1n[nH]c2c1CCCC2,2.1,7.7,-0.1%,-15.0%,-2.3,6.9%,5.7%
Cc1cccc(C)c1OC1(c2ccccc2)OC(=O)c2ccccc21 (stereo not given),0.0,7.3,0.9%,-9.1%,-3.1,-23.8%,-6.2%
CC(CNC(=O)C(C)C)NC(=O)C(C)C (stereo not given),-2.1,-1.6,-1.5%,17.5%,-12.3,-2.7%,11.1%
COCCOC(=O)C1=C(C)NC(=O)NC1/C=C/c1ccccc1 (stereo not given),8.0,-9.5,0.3%,-9.6%,-0.7,-42.4%[inhibitor],9.0%
CC(C)CCN1C(=O)c2ccc(C(=O)NCc3ccco3)cc2C1=O,5.9,-11.8,-0.8%,9.7%,0.5,-17.2%,-5.9%
CN(C)S(=O)(=O)c1ccc(/C(O)=C2/C(=O)C(=O)N(Cc3cccnc3)C2c2cccs2)cc1 (stereo not given),-2.5,0.9,x,-10.2%,-2.0,-13.8%[15.4 µM],7.0%
